# MgrA DNA FP = modulators of Staphylococcus aureus MgrA DNA binding; 0.13% of 84,000 active; fluorescence polarization; inhibition, %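 (about 10 µg/mL by stock and volumes)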;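 active = above 50% in either of two replicates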;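 also: 0% = protein plus DNA without compound and 100% = DNA alone without protein; higher means less MgrA bound to DNA so lower polarization; one replicate is shown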
# Sa helicase inh = blocks Staphylococcus aureus DNA helicase; 0.05% of 120,000 active; purified S. aureus helicase, fluorescence unwinding assay; about half of the hits fall short of the stated cut; inhibition, %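 (tested at about 80 µM)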; AID 485395;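 active = both duplicates at 50% or more, or one of them with a favoured structure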;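 also: 0% = mean of negative control wells and 100% = mean of positive control wells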
# * marks the source's active call; other numbers are inactive results; . = no result given; & = joins results of further samples.
No.	compound	Sa helicase inh	MgrA DNA FP
1	CC(C)(C)c1ccc(COC(=O)C2=COCCO2)cc1	-3	.
2	O=S(=O)(c1ccc2oc(SCc3cn4cc(Cl)ccc4n3)nc2c1)N1CCOCC1	74	.
3	CCc1ccccc1Cn1c(=O)oc2cccnc21	.	-1.4
4	O=c1[nH]c(-c2ccc(Br)cc2)nc2ccccc12	-6	1.2
5	Cc1[nH]c2ccccc2c1C1CC(=O)N(c2ccccc2)C1=O (stereo not drawn)	-9	.
6	O=C(Nc1cccc(C(F)(F)F)c1)NC1(c2ccccc2)CC1	8	-1.8
7	CCOc1ccc(N2CC(C(=O)O)CC2=O)cc1 (stereo not drawn)	4	-0.2
8	C=CCn1c(=N)n(CC(O)c2ccc(OCC)cc2)c2ccccc21 (stereo not drawn)	10	.
9	CC(=NCCc1ccc(F)cc1)C1=C(O)c2ccccc2C1=O	16	-0.8
10	COc1cc(OC)cc(-c2cc3nc(-c4ccccc4)cc(N4CCN(c5ccccc5)CC4)n3n2)c1	-4	-3.5
11	CC12CN3CC(C)(CN(C1)C3C(O)C(O)C(O)CO)C2 (stereo not drawn)	-21	.
12	CN1/C(=C\C=C2C(=O)c3ccccc3C2=O)Sc2ccccc21	-187	-9.4
13	CC1(C)NC(C)(C)/C(=N\O)C(=NO)/C1=N\O	3	1.6
14	CSc1nc(-c2ccc(Cl)cc2)nn1S(=O)(=O)c1ccc(NC(C)=O)cc1	1	-0.4
15	CSc1nn(-c2ccccc2)cc1/C(N)=N/OC(=O)Nc1ccccc1	-10	.
16	CCCn1c(N)c(C(c2cc(OC)c(OC)c(OC)c2)N2CCCC2)c(=O)[nH]c1=O (stereo not drawn)	-6	.
17	Cc1cccc(NC(=O)N2CCCC2C(=O)O)c1 (stereo not drawn)	7	.
18	Cn1nc(-c2ccc(C(=O)Nc3cccnc3)cc2)c2ccccc2c1=O	4	-0.9
19	CCN1CCN(C(=O)c2oc3ccc4c(c3c2C)C(=O)CC2(CCCCC2)O4)CC1	21	.
20	CC(C)OC(=O)N(C)c1ccc(C(O)(C(F)(F)F)C(F)(F)F)cc1	14	3.4
21	N#CC1(NC(=O)CN2CCN(C(=O)c3ccccc3)CC2)CCCC1	9	.
22	CCOc1cc(C=NN2CCN(Cc3ccccc3)CC2)ccc1O	19	.
23	CN1C2C=C(N(CCc3c[nH]c4ccccc34)C(=O)c3ccc(Cl)cc3)CC1CC2 (stereo not drawn)	.	0.2
24	CC(C)(C)c1cc(C(=O)Oc2cccnc2)cc(C(=O)Oc2cccnc2)c1	.	-0.9
25	Cc1cc(C(F)F)c2c3ccccc3n(C)c2n1	22	.
26	N#CC1=C(SCC(=O)NC2CCCCC2)NC(=O)CC1c1ccc(F)cc1 (stereo not drawn)	14	.
27	Cn1cnnc1SCc1ccc(C#N)cc1	15	.
28	N#Cc1cccc(NC(=O)CCC(=O)N2CCN(S(=O)(=O)c3ccccc3)CC2)c1	6	.
29	CCCc1nc(N)c(C#N)c(-c2cccs2)c1CC	13	.
30	Cc1csc(NC(=O)C2CCCN(S(=O)(=O)c3cccc4nsnc34)C2)n1 (stereo not drawn)	-7	.

# 3 structures from above, ordered by length of the SMILES, low to high:
No.	compound	Sa helicase inh	MgrA DNA FP
3	CCc1ccccc1Cn1c(=O)oc2cccnc21	.	-1.4
17	Cc1cccc(NC(=O)N2CCCC2C(=O)O)c1 (stereo not drawn)	7	.
15	CSc1nn(-c2ccccc2)cc1/C(N)=N/OC(=O)Nc1ccccc1	-10	.

# More results:
No.	compound	Sa helicase inh	MgrA DNA FP
31	CCOc1ccc2cc(S(=O)(=O)N3CCCCCC3)ccc2c1	26	.
32	COc1ccc(-c2nc(C#N)c(N3CCN(C)CC3)o2)cc1	10	0.8
33	Cc1[nH]c2ccccc2c1C(=O)CSC(=S)N1CCCCC1	-1	0.8
34	O=C(c1ccccc1)N(Cc1ccco1)Cc1ccco1	-16	.
35	Cn1cccc1C1=NCCO1	10	.
36	O=C(CCc1nc(-c2ccccc2F)no1)NC1CCCCC1	4	.
37	N#C/C(=C/c1ccc(-c2ccc(C(=O)O)cc2)o1)c1ccc(Cl)cc1	22	14
38	O=C(O)CC(NC(=O)c1cncc(O)c1)C(=O)O (stereo not drawn)	-1	.
39	COc1ccc(-c2cc(C(=O)O)c3ccccc3n2)cc1OC	-4	.
40	CCOC(=O)C1CCN(Cc2cccc(NC(=O)c3ccco3)c2)CC1	.	-0.7
41	COc1ccccc1NC(=O)N1CCNCC1	20	-1.5
42	Cc1c(Br)sc2sc(-c3ccn[nH]3)c(C)c12	.	2.5
43	COCCCn1c(=S)[nH]c2ccccc2c1=O	.	1.5
44	Cc1ccc(NC(=O)C(C)OC(=O)CSc2ccccc2)cc1 (stereo not drawn)	8	.
45	CC[C@H](C)NC(=O)Cc1ccc(NC2=NC3CS(=O)(=O)CC3S2)cc1 (stereo partly drawn)	4	.
46	CCOC(=O)c1cnc2ccc(C(=O)OC)cc2c1NCCN(C)C	12	2.9
47	Cc1ccc(N(Cc2ccco2)S(=O)(=O)c2ccc(F)cc2)cc1	11	.
48	O=C(NCc1ccccc1)c1ccc2c(c1)N(Cc1ccccc1)CCS2	-5	-0.3
49	CCOC(=O)COc1ccc(S(=O)(=O)Nc2cccc(SC)c2)cc1	7	1.6
50	COC(=C(C#N)C#N)c1ccccc1	-13	-8.2
51	O=S(=O)(c1ccccc1)n1ccc(-c2ccc(Br)s2)n1	.	-1.6
52	CCOC(=O)Cn1c2c(sc1=N)CC(C(C)(C)C)CC2 (stereo not drawn)	6	-0.1
53	CCc1ccc(C(=O)N(CC)Cc2ccncc2)s1	0	0.1
54	CS(=O)(=O)N1Cc2ccccc2CC1C(=O)OCc1nc2ccccc2c(=O)n1CC#N (stereo not drawn)	15	.
55	CCN(CC)c1nc2ccccc2[nH]1	-1	-11
56	O=C(OCC(=O)c1cccs1)c1ccco1	-5	.
57	COc1cc(Cl)c(C)cc1NC(=S)N(CCN(C)C)C(C)c1ccco1 (stereo not drawn)	4	2.8
58	COc1ccc(S(=O)(=O)CCC(=O)N(C)c2ccc(OC)cc2OC)cc1	3	-2.5
59	O=C(O)CC(O)(CC(=O)O)C(=O)O	-2	-0.5
60	O=C(/C=C/c1ccc(S(=O)(=O)N2CCOCC2)cc1)N1CCCCC1	0	.

# (cont.)
No.	compound	Sa helicase inh	MgrA DNA FP
61	Cc1nnc2c(=O)n(-c3cccc(F)c3)ccn12	21	.
62	COc1ccc(NC(=O)C(C)N2C(=O)c3ccccc3S2(=O)=O)c(OC)c1 (stereo not drawn)	-7	.
63	O=C(O)Cc1cccnc1	21	.
64	CCOC(=O)c1c(C)n(-c2ccccc2)c2ccc(OC(=O)c3ccc(Cl)c([N+](=O)[O-])c3)cc12	.	-3.7
65	O=C(c1cc2ccccc2oc1=O)N1N=C(c2ccccc2)CC1c1ccccc1 (stereo not drawn)	17	3.4
66	CCOC(=O)C1=C(O)/C(=C/c2cccs2)SC1=Nc1ccccc1	-16	0.4
67	Cc1cc(SCc2ccc(C(F)(F)F)cc2)nc(=O)[nH]1	-13	.
68	CCc1ccc(NC(=O)NCCCN2CCCc3ccccc32)cc1	11	1.1
69	Cc1cc2[nH][nH]c(=O)c2c(C)n1	35	.
70	CCOc1ncccc1C(=O)N1CCCSC1=Nc1ccccc1OC	-8	.
71	N#CC(C(=Nc1ccccc1)SCc1ccc(Cl)cc1)c1nc2ccccc2[nH]1 (stereo not drawn)	.	1.9
72	COc1cc(/C=C2\Sc3ccccc3C2=O)cc(Cl)c1OC(C)C	.	-1.0
73	N=C(N)SCP(=O)(c1ccccc1)c1ccccc1	-7	4.2
74	CC(C)CC(NS(=O)(=O)c1ccc2[nH]c(=O)c(=O)[nH]c2c1)C(=O)O (stereo not drawn)	18	-1.0
75	N#C/C(=C\Nc1ccc2c(c1)OCCO2)S(=O)(=O)c1cccs1	.	1.8
76	O=C(OCC(=O)N1CCc2ccccc2C1)c1ccc(Br)o1	-3	-1.5
77	CC1(C)CC(=O)c2cnc(NC(=O)CSCC(=O)Nc3cccc(F)c3)nc2C1	16	0.5
78	Cc1nn(C(=O)c2cccnc2)c(C)c1Sc1ccccc1	17	.
79	O=C(c1cccs1)c1coc2ccc(O)c(CN(CCO)CCO)c12	-2	-4.2
80	COC(=O)c1ccccc1NC(=O)C1CCCN(c2nnc(-n3cccc3)s2)C1 (stereo not drawn)	8	.
81	CNC(=O)NC(=O)CN1C(=O)c2ccccc2C1=O	16	.
82	O=C(COC(=O)c1ccccn1)Nc1ccccc1	7	4.9
83	Cc1ccc(NC(=O)c2cnn(-c3ccccc3)c2NC(=O)c2ccco2)cc1	-16	.
84	O=C(CNCc1ccc(F)cc1)N1CCC2(CC1)OCCO2	4	-4.8
85	CC(O)CCc1nc2ccccc2[nH]1 (stereo not drawn)	9	.
86	CN(CCC#N)c1ccc(/C=C2/N=C(c3ccccc3)OC2=O)cc1	.	6.7
87	Cc1cc(C(=O)OCc2cc(=O)oc3cc(C)c(Cl)cc23)c(C)o1	-10	.
88	CN(C)c1nc(-c2ccc(Cl)cc2)[nH]c(=O)n1	.	-0.4
89	CC(C)(CO)NCC(O)Cn1c2ccccc2c2ccccc21 (stereo not drawn)	18	.
90	COc1ccccc1N1CCN(S(=O)(=O)c2ccc3nc(-c4ccccc4)[nH]c3c2)CC1	19	.

# (cont.)
No.	compound	Sa helicase inh	MgrA DNA FP
91	COc1cc(CNCC2CCCO2)cc(Cl)c1OCC(N)=O (stereo not drawn)	2	-2.2
92	Nc1nc(-c2ccc(OCc3ccc(Br)cc3)cc2)cs1	12	-1.1
93	CCN(CC)S(=O)(=O)c1ccc2[nH]c(=O)c3ccccc3c2c1	9	3.0
94	Oc1ccc(C=Nc2cccnc2)cc1	12	3.5
95	CC(Oc1ccc(F)cc1)C(=O)Oc1ccc(Br)cc1 (stereo not drawn)	-4	.
96	CC1(C)CC(NC(=O)c2ccncc2)CC(C)(C)N1O	-1	-2.4
97	N=Cc1c(C(F)(F)F)[nH]n(-c2nc3ccccc3s2)c1=O	4	0.2
98	Cc1ccc(NC(=O)c2cccc3c2C(=O)c2ccccc2-3)cc1	2	-0.1
99	N#CC1=C(N)S[C@H](C(=O)c2ccccc2)[C@H]1c1ccc(Br)c(F)c1	-15	0.6
100	NC(=O)CCN1C(=O)C2C3C=CC(C3)C2C1=O (stereo not drawn)	18	1.8
101	CCCCCC(=O)NC1CCN(Cc2ccccc2)CC1	3	-1.3
102	c1ccc2c(c1)sc1nnc(Sc3ncnc4sc5c(c34)CCCC5)n12	-11	.
103	COc1cccc(-c2cc(C(=O)NC3CCC(C)CC3)[nH]n2)c1 (stereo not drawn)	-13	.
104	Cc1ccc(-n2cc(C#N)c(C(=O)c3cccs3)n2)cc1	.	0.8
105	CCCC(=O)NNc1ncc(C(=O)OCC)c(C(F)(F)F)n1	-17	.
106	CCN(CC)C(=O)c1cc(-c2ccccc2)n[nH]1	10	-0.3
107	CCOc1ccc(/C=C/C(=O)NCC(C)C)cc1OCC	-16	.
108	N#Cc1cccnc1Cl	4	.
109	CCCCn1c(CNC(=O)C(C)(C)C)nc2ccccc21	-21	.
110	CCC1Oc2ccc(C)cc2N(CC(=O)N(Cc2ccc(F)cc2)CC2CCCO2)C1=O (stereo not drawn)	5	-1.6
111	Cc1csc2c(NCCc3ccccn3)ncnc12	.	-2.3
112	CC(=O)N1CC=C(c2ccc(O)cc2)CC1	-7	.
113	CC(C)(C)NC(=O)Oc1ccccc1	.	-2.3
114	CN1CCC(N(C)C(=O)NC2CCCCC2)CC1	0	1.0
115	O=C1C=CC(=C(c2ccc(O)cc2)c2ccc(O)cc2)C=C1	.	2.0
116	OCCN1CCN(c2ncnc3c2cnn3-c2ccc(Cl)c(Cl)c2)CC1	15	.
117	CCn1c(SCC#N)nnc1-c1cccc(C)c1	-7	0.2
118	O=C(OCc1cc(F)cc(F)c1)c1c(F)cccc1F	.	-0.5
119	Cc1ccc(OC(=O)c2cccc(S(=O)(=O)N3CCOCC3)c2)c(-n2nc3ccccc3n2)c1	9	0.7
120	C=CCN=C1SC(C)C(=O)N1S(=O)(=O)c1ccccc1 (stereo not drawn)	4	-2.9

# Remaining list, next part:
No.	compound	Sa helicase inh	MgrA DNA FP
121	COC(=O)CNC(=O)c1cc(-c2ccc3c(c2)OCO3)nc2c(C)c(Cl)ccc12	20	2.1
122	O=C(CSc1ccccc1)N1CCCCCC1	22	3.2
123	NC(=NCCCCCCN=C(N)/N=C(\N)Nc1ccc(Cl)cc1)/N=C(\N)Nc1ccc(Cl)cc1	.	-4.8&-3.0
124	CN(C)CC(O)C1CCOC(C)(C)C1 (stereo not drawn)	-6	3.2
125	CC(=O)N/C(=C/c1ccccc1)C(=O)N1CCCCC1	24	-0.4
126	O=C1SC(Nc2ccccc2Br)C(=O)N1c1ccccc1 (stereo not drawn)	-27	.
127	c1ccc(CSc2nnnn2-c2ccccc2)cc1	3	11
128	CN1CCC(N(C)C(=O)c2cc3ccccc3oc2=O)CC1	-16	1.5
129	O=S(=O)(/C=C/c1ccccc1)NCc1ccccc1	23	.
130	N=c1c2c3c(sc2ncn1CCO)CCCC3	0	.
131	Cc1c(C(=O)N(CC2CCCO2)C2CCS(=O)(=O)C2)oc2ccc(F)cc12 (stereo not drawn)	6	.
132	C=C(C)c1cccc(C(C)(C)NC(=O)Nc2ccc(N3CCOCC3)cc2)c1	6	0.0
133	CC(C)CC(C(N)=O)N1C(=O)c2ccccc2C1=O (stereo not drawn)	9	1.5
134	Cc1ccc(CS(=O)Cc2ccc(C(=O)NCc3cccnc3)o2)cc1 (stereo not drawn)	13	.
135	Cc1nc2c(c(C)c1CCC(=O)NCCC1=CCCCC1)c(=O)n(C)c(=O)n2C	-21	.
136	CC1(C)Cc2c(c(N3CCOCC3)nc3sc(-c4ccc(C(=O)O)o4)c(N)c23)CO1	8	.
137	CCOc1ccc(C)cc1-n1nc2ccccc2n1	-2	.
138	COc1ccc(OCC(=O)NCc2nc3ccccc3[nH]2)cc1	-1	1.2
139	Cn1nc(C(F)(F)F)c(-c2ccccc2)c1N	.	2.5
140	CC(Oc1ccccc1)C(=O)n1c(=O)oc2ccccc21 (stereo not drawn)	-6	.

# Screens deposited in PubChem BioAssay by ICCB-Longwood Screening Facility, Harvard Medical School.

# Some of the compounds tested, so the mix of outcomes need not match the whole.
